UCH37 inh – human UCH37 deubiquitinating enzyme inhibition | 330,000 compounds, 0.33% hits | inhibition, % (test concentration not listed) | AID 588478 | Q9Y5K5 | purified proteasome/UCH37, Ub-AMC cleavage fluorescence;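 active = mean of two replicates above 20%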;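 note: 0% = compound-free wells with enzyme and 100% = wells lacking proteasome; stock transfer was 100 nL into about 20 µL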
Target sequence (Q9Y5K5 whole entry, looked up): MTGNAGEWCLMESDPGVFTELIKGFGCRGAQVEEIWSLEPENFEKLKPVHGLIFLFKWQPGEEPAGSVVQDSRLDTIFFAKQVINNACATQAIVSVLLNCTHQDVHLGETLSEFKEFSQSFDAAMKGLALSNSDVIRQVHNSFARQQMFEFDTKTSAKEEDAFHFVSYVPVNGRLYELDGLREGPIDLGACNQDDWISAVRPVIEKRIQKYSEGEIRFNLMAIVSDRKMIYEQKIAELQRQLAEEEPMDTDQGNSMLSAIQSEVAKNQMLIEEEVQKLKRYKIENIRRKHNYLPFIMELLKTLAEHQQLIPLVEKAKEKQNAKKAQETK
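Signal – fluorescence, ex 355 nm, em 460 nm · System – Proteasome-bound UCH37 · Input – 0.15 nM proteasome as dispensed · Timing – 30 min preincubation with enzyme, 25 min cleavage at room temperature · Read-out basis – percent inhibition of cleavage signal versus uninhibited and no-proteasome wells · Medium – Tris-HCl pH 7.4 with ATP-MgCl2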
Vif TR-FRET – inhibitors of Vif binding to APOBEC3G peptide, primary screen, biochemical, TR-FRET, GST-Vif 1-94, biotin-A3G peptide, dose response retest (AID 1117319). TR-FRET GST-Vif / biotin-A3G peptide binding; higher % means a stronger effect; test concentration not given here; strong numbers were not always called active. one-dose inhibition, %; IC50 in µM for titrated hits. 260,000 compounds, 0.57% hits;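 active = above the screen mean plus three standard deviations and confirmed in dose response; inconclusive = results disagree or hit not tested in dose response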;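 note: Vif residues 1-94 fused to GST binding biotinylated APOBEC3G peptide 110-148; 0% = full assay without inhibitor and 100% = GST in place of GST-Vif; retest series ran down from 100 µM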
HNF4A DNA FP – change in binding of human HNF4 alpha to DNA. P41235. HNF4a-FITC DNA binding, fluorescence polarization, 1 h. activity change, % at 10 µM. 360,000 compounds, 0.3% hits. AID 1224865; in the data active = activity change above about 30%, passing the limit was not always enough;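 note: controls were the assay level and a saturating level of protein; the project sought stronger binding though the title names inhibitors; some compounds called inactive have numbers as strong as hits; positive values seem to mean higher polarization but the record does not say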
Target sequence (P41235 whole entry, looked up): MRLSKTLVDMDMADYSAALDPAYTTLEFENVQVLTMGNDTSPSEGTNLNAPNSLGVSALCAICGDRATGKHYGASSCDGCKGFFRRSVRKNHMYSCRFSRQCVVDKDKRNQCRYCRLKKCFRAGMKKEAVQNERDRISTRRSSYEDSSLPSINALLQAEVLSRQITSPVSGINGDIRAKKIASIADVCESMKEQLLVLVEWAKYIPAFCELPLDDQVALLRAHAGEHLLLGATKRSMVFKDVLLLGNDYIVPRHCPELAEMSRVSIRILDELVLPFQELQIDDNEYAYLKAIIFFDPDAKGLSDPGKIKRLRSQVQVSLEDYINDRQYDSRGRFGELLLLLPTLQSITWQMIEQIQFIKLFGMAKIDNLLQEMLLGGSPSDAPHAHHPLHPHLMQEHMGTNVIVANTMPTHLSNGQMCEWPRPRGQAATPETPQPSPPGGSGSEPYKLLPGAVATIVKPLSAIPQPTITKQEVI
FGF22 binding – FGF22 (human) thermal shift binding | Q9HCT0 | recombinant FGF22 thermal shift, SYPRO orange fluorescence; percent of sucrose octasulfate shift, DMSO zero | 340,000 compounds, 1.5% hits | calls only at 9.99 µM;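 active = melting point raised past a set limit in the mean and every replicate; inconclusive = no clear call; three in four hits are not shown here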
Target sequence (Q9HCT0 whole entry, looked up): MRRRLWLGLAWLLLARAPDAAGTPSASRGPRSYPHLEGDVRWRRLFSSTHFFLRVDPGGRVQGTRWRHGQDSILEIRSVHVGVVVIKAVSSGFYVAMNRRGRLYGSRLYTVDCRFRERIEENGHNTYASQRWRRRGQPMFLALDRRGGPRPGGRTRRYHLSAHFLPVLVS
MLL AF4-AF9 inh – blocks AF4 peptide binding to human AF9; P42568; AlphaScreen, biotin-AF4 peptide binding to FLAG-AF9; inhibition, % at 10 µM; 350,000 compounds, 0.47% hits;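 active = every replicate reaching a set inhibition limit, whatever the replicate mean, cut at about 25% in these data; inconclusive = mean inhibition reaches that limit but some replicates miss it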;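 note: 0% = plate neutral control median and 100% = total signal loss; the record names both 10 and 1 µM as test concentration; the first replicate is given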
RanGTP-Impb inh – disruptors of Ran-importin-beta complex formation – biochemical, FRET, CFP-Ran, YFP-importin-beta, homogeneous, primary screen; cell-free CFP-Ran/YFP-importin-beta FRET ratio; inhibition, % (concentration not given with the values); 300,000 compounds, 1.1% hits; AID 2216;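 active = most replicates above 15%; inconclusive = exactly half above 15%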;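 note: 0% = DMSO wells and 100% = Ran loaded with GDP instead of GTP; wells of about 40 µL received 100 nL stock; the first replicate is given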
Ecoli growth – inhibitors of Escherichia coli growth. OD600, 23 h; active compounds read low. OD600 absorbance (no concentration beside the values). 330,000 compounds, 0.21% hits;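 active = OD600 absorbance below the run mean of sample wells minus 3.6 SD, in any replicate, cut at about 0.56 in these data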;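 note: stock transfer was 300 nL into about 60 µL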
* = called active by the depositor; i = inactive; u = inconclusive; x = not tested or not shown; & = joins results of further samples. Only part of the results is shown; count on the stated rates, not on these rows.

SMILES	UCH37 inh	Vif TR-FRET	HNF4A DNA FP	FGF22 binding	MLL AF4-AF9 inh	RanGTP-Impb inh	Ecoli growth
CCOc1ccc(N(CC(=O)NCc2ccccc2)C(=O)CCC(=O)Nc2nccs2)cc1	0.2	-2.4%	2.7	i	1.6	-0.2	0.656
COC(=O)c1sccc1NC(=O)c1cc(-c2cc(C)ccc2C)nc2ccccc12	-1.9	1.5%	0.0	i	0.9	1.2	0.765
O=S(=O)(c1ccc(-c2ccccn2)s1)N1CCC2(CC1)OCCO2	0.3	-12.6%	6.8	i	-1.7	1.6	0.671
CCOC(=O)C1=C[C@@H](CC)N(S(=O)(=O)c2ccc(C)cc2)[C@H]1c1cccs1	x	x	-0.4	i	-1.8	x	x
Cc1ccccc1C(=O)N1CC(=O)Nc2ccc(F)cc2C1c1ccc(F)cc1 (stereo not drawn)	1.1	-4.2%	2.5	i	2.7	0.0	0.641
CN(C)c1ccc(CNC(=O)c2ccc(CNc3c(N4CCCCC4)c(=O)c3=O)cc2)cc1	4.7	25.9%	2.8	i	-11.0	-1.0	0.701
COc1ccc(NC(=O)c2sc3cc(C(F)(F)F)cnc3c2-c2cccs2)cc1	-14.3	-65.8%	2.8	x	x	11.8	0.752
COC(=O)N(C)C[C@@H]1OCc2ccccc2-c2c(n(C)c3ccccc23)C(=O)N([C@H](C)CO)C[C@@H]1C	x	7.1%	0.3	i	-1.1&-1.5	x	x
CN1C(=O)/C(=C\C=C2/CCCN2C)N(C)C1=S	38.6*	0.7%	61.9*	i	1.5	u	x
CN1CCN(C(=O)NC2CCCCC2)CC1	4.9	x	2.3	x	x	-3.0	0.723
COc1ccccc1-n1cc(C(=O)c2cc(Cl)ccc2O)cc(C#N)c1=O	3.9	5.8%	6.7	i	5.0	6.7	0.758
O=C(O)CSc1ccccc1C(=O)O	2.1	-4.1%	-0.1	x	x	1.7	0.73
CC(c1cccnc1)N(C(=O)Nc1ccccc1)C1CCCCC1 (stereo not drawn)	10.2	-0.4%	-0.9	i	-5.2	-0.3	0.762
COc1cc(OC)c(C(=O)OCC(=O)Nc2cccc(S(=O)(=O)NC3=NCCCCC3)c2)cc1OC	1.8	x	0.4	i	1.7	x	0.66
O=C(NC1CCC(=O)N(CCOc2ccccc2)CC1)OCc1ccccc1 (stereo not drawn)	4.1	x	-2.4	i	-4.1	-0.2	0.629
Cc1cc(=O)oc2cc(NS(=O)(=O)c3ccc(F)cc3)ccc12	i	4.3%	-0.4	i	-1.7	3.3	0.696
O=C(CCCN1C(=O)/C(=C/c2ccccc2Cl)SC1=S)NNC(=O)c1ccccc1Cl	3.2	-4.5%	-0.4	i	-11.5	-1.9	0.72
CCOc1ccc2c(c1)-c1c(ssc1=S)C(C)(C)N2	-1.2	3.9%	-2.6	x	x	3.1	0.658
Oc1ccccc1N1CCN(c2ncnc3scc(-c4ccccc4)c23)CC1	0.4	x	2.5	i	6.2	-0.8	0.712
COc1cccc(Nc2nc3ccccc3n3cnnc23)c1	-18.5	-8.4%	-0.6	i	-0.9	-6.2	0.735

Following part:
SMILES	UCH37 inh	Vif TR-FRET	HNF4A DNA FP	FGF22 binding	MLL AF4-AF9 inh	RanGTP-Impb inh	Ecoli growth
CN(c1nc2ccccc2n2c(C3CC3)nnc12)S(=O)(=O)c1ccccc1	0.3	9.3%	-0.4	i	1.0	-1.8	0.678
COc1cc(-c2nc(-c3ccc4c(c3)-c3ccccc3S4(=O)=O)c(-c3ccccc3)[nH]2)cc(OC)c1O	-15.1	u	2.4	x	x	0.8	0.749
CC(=O)Nc1ccc(/C(C)=N/NS(=O)(=O)c2ccccc2)cc1	x	-13.2%	1.6	x	x	0.1	x
O=C(CSc1nc(C2CCCCC2)nc2ccccc12)NCc1ccco1	5.4	4.5%	-2.8	i	0.1	-2.5	0.694
C=CCN(c1ccccc1OC)S(=O)(=O)c1cccc(C(=O)NC2=NCCS2)c1	0.7	2.1%	-5.0	i	3.0	x	0.699
COc1ccc(-c2nc(=S)c3c(n2Cc2cccnc2)CC(C)(C)OC3)cc1	11.5	-3.1%	-0.5	i	3.2	1.9	0.656
Cc1ccnc(NC(=S)N2CCN(c3cccc(C(F)(F)F)c3)CC2)c1	x	x	-0.3	i	9.0	0.3	x
CC(NC(=O)c1ccc(C(C)(C)C)cc1)C(=O)O (stereo not drawn)	-1.0	22.9%	1.6	x	x	4.3	0.711
COc1cccc(Cn2cnc3c(NS(=O)(=O)c4ccc(Cl)cc4Cl)c(C)c(C)cc32)c1	4.9	0.0%	-1.5	x	x	-2.7	0.756
OCCC1CN(Cc2ccccn2)CCN1C1CCCC1 (stereo not drawn)	1.0	5.9%	1.6	i	-2.7	2.5	0.66
CC(C)NC(=O)C1CCCN(S(=O)(=O)c2cccc3nonc23)C1 (stereo not drawn)	3.5	x	-3.5	i	-0.9	0.7	0.705
COCCn1c(SCC(=O)Nc2nc(C)c(Cl)cc2Cl)nc2ccccc21	-1.0	1.2%	1.5	x	x	2.5	0.717
COc1cc(OC)cc(C(=O)NNC(=O)CCc2ccccc2)c1	-0.3	27.2%	-2.2	i	10.4	0.3	0.7
Cc1ccc2nc(Cl)c(C3CC(c4ccco4)=NN3C(=O)CCCC(=O)O)cc2c1 (stereo not drawn)	2.5	13.1%	3.7	i	-0.3	3.3	0.658
CS(=O)(=O)N1CCN(c2ccc(NC(=O)c3ccccc3)cc2)CC1	0.9	1.6%	4.0	i	0.8	-1.4	0.72
CCOc1ccc(N2C(=O)c3ccccc3C2O)cc1 (stereo not drawn)	5.1	5.8%	2.3	i	3.0	7.1	0.716
CCOc1ccccc1N1CC(C(=O)Nc2nccs2)CC1=O (stereo not drawn)	2.9	21.5%	1.6	x	x	1.1	0.741
N#Cc1nc(-c2ccccc2F)oc1N1CCCCC1	-378.3	1.4%	-1.7	i	20.0	2.1	0.596
COc1ccc(N=C2C(=O)N3CCCc4cccc2c43)cc1	4.7	1.6%	4.7	i	5.6	3.9	0.674
Cc1ncc([N+](=O)[O-])n1CCOC(=O)Nc1ccc(Cl)c(Cl)c1	3.6	3.0%	1.7	x	x	3.7	0.691

Remaining list, next part:
SMILES	UCH37 inh	Vif TR-FRET	HNF4A DNA FP	FGF22 binding	MLL AF4-AF9 inh	RanGTP-Impb inh	Ecoli growth
Cc1ccc(C)c2[nH]c(=O)c(CCNC(=O)CC(C)(C)C)cc12	-7.2	-5.6%	-4.7	i	-2.3	u	0.772
O=C(Cc1cccc2ccccc12)Nc1ccccc1Br	-1.3	x	-2.2	i	-5.8	0.0	0.716
Cc1cc(NC(=O)Cc2ccc(Br)cc2)no1	3.7	x	-1.4	i	-3.0	2.1	0.662
COc1ccc(S(=O)(=O)N(Cc2cccs2)C2CCCC2)cc1	2.6	5.3%	-2.9	x	x	0.8	0.74
FC(F)Oc1ccc(/C=N/n2c(Cc3ccc(Br)cc3)n[nH]c2=S)cc1	x	x	-0.5	i	-3.0	4.0	x
O=c1cc(/C=C/c2cccs2)[nH]c2ccccc12	-8.2	19.6%	-1.1	i	-1.1	-0.4	0.7
OCCNCCOc1ccc(Cl)c(Cl)c1	2.5	28.6%	-2.1	i	7.8	-2.8	0.693
C=CCn1c(=S)[nH]c2cc(C(=O)NCCc3ccc(S(N)(=O)=O)cc3)ccc2c1=O	0.5	x	1.6	i	2.9	x	0.731
CCNc1nc(NCC)n2c(SCC(=O)N3CC4(C)CC3CC(C)(C)C4)nnc2n1 (stereo not drawn)	1.2	18.9%	-0.5	x	x	5.4	0.69
Clc1ccc(-c2csc(N3CCC(c4ccccc4)C3)n2)cc1 (stereo not drawn)	3.6	2.2%	1.8	x	x	-2.1	0.745
COc1ccc(CCOC2OC(CO)C(OC(=O)/C=C/c3ccc(O)c(OC)c3)C(O[C@H]3O[C@@H](C)[C@H](O)[C@@H](O)[C@H]3O)C2O)cc1O (stereo partly drawn)	-6.4	x	5.5	i	-2.4	x	0.735
CN(Cc1cnn(C)c1)C(=O)C1CCCCC1C(=O)O (stereo not drawn)	-2.8	x	-0.7	x	x	x	0.709
N#CC1(NC(=O)COC(=O)Cn2[nH]c(=O)c3ccccc3c2=O)CCCCC1	2.8	-10.4%	-0.2	i	-13.7	-2.1	0.719
CCn1c(SCC(=O)N2CCCc3ccccc32)nc2ccccc2c1=O	1.1	-1.9%	-1.1	x	x	-2.4	0.651
CC(C)NC(=S)N/N=C/c1c[nH]c2ccccc12	x	-2.7%	-1.1	x	x	5.2	x
CCCn1cc(S(=O)(=O)CC(=O)Nc2ccc(OCC)cc2)c2ccccc21	5.3	0.0%	-0.1	x	x	x	0.676
CCOC(=O)C(C)Sc1nnc(NC(=O)c2cccc([N+](=O)[O-])c2C)s1 (stereo not drawn)	3.1	x	1.1	x	x	0.5	0.681
O=C(c1ccccc1F)N1CCC(N2CCCCCC2)CC1	4.0	-6.3%	6.2	x	x	-1.4	0.743
Cc1csc(SCC(=O)NC(=O)NC(C)C)n1	0.9	x	0.1	i	-2.6	-2.3	0.649
Cn1nnnc1SCC(=O)NC(=O)Cc1ccccc1	-0.4	-1.6%	3.8	x	x	-0.9	0.752

Whole records from above. Screens in order: UCH37 inh, Vif TR-FRET, HNF4A DNA FP, FGF22 binding, MLL AF4-AF9 inh, RanGTP-Impb inh, Ecoli growth
O=C(Cc1cccc2ccccc12)Nc1ccccc1Br reads -1.3, x, -2.2, i, -5.8, 0.0, 0.716
Cn1nnnc1SCC(=O)NC(=O)Cc1ccccc1 reads -0.4, -1.6%, 3.8, x, x, -0.9, 0.752

Additional entries follow:
SMILES	UCH37 inh	Vif TR-FRET	HNF4A DNA FP	FGF22 binding	MLL AF4-AF9 inh	RanGTP-Impb inh	Ecoli growth
Cc1cccc(C(=O)N(c2ccccn2)C(C)c2ccco2)c1 (stereo not drawn)	-0.7	-0.5%	1.6	i	2.6	-0.4	0.704
CC(C)CNC(=O)C(=O)NN=C1CCCCCC1	4.3	-0.5%	0.2	x	x	2.2	0.695
Cc1cc(C)n(-c2nc3c(c(=O)[nH]c(=O)n3C)n2C(C)C)n1	0.1	-0.7%	-5.2	x	x	0.2	0.675
O=C(NCC1CCCO1)/C(=C\c1ccccc1F)NC(=O)c1ccccc1 (stereo not drawn)	0.3	x	-0.1	i	-2.6	7.5	0.65
CN(Cc1ccc(F)cc1)S(=O)(=O)c1nnc(NC(=O)c2ccccc2)s1	0.3	x	-1.1	i	1.5	2.0	0.656
Cc1cccc(C)c1-n1c(C)cc(/C=N/NC(N)=S)c1C	x	4.3%	1.7	x	x	-2.0	x
CCN1C(=O)[C@H]2[C@@H](c3ccc(Cl)cc3)N3C(=O)CN(CCOC)C(=O)[C@@]3(C)[C@H]2C1=O	-0.2	x	0.9	i	5.3	-2.1	x
O=C(O)/C=C/C(=O)N1CCN(Cc2ccc3c(c2)OCO3)CC1	0.2	-0.6%	0.0	i	-3.8	-0.4	0.647
CN(CC(=O)Nc1sccc1C#N)C1CCCCC1	1.5	27.8%	-0.6	x	x	-4.0	0.683
O=C(Cc1ccc(Cl)cc1)Nc1cccc(C(=O)Nc2ccccc2C(=O)O)c1	2.9	x	-3.7	x	-0.6	-2.6	0.611
CCSC1=C(C#N)C2(CCCCC2)C(C#N)C(=O)N1 (stereo not drawn)	-0.1	0.7%	-3.0	x	x	x	0.692
Cc1ccc(C(=O)C(C)OC(=O)CN2C(=O)NC3(CCCC3)C2=O)cc1C (stereo not drawn)	4.9	6.7%	0.7	i	-33.9	3.2	0.644
COc1ccc(N(CC(=O)NC2CCCC2)C(=O)CCC(=O)Nc2nc(C)cs2)cc1OC	4.5	x	3.5	i	-4.8	3.2	0.679
CC(OC(=O)c1ccco1)C(=O)Nc1nc(-c2ccccc2)cs1 (stereo not drawn)	1.3	-6.2%	-2.3	i	-2.0	x	0.659

Compound activity as filed in PubChem BioAssay.
